Vaccinia stage: blocks a specific stage of Vaccinia orthopoxvirus infection | Vaccinia-infected cells, mCherry/Venus stage reporter fluorescence; hits give low values; some inactives read as strong as hits | activity change (mCherry), % (concentration not given with the values) | actives 0.01% (n = 89,000);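 active means mCherry past -33% and 40 or more points under the early reporter, replicates agreeing; inconclusive means past -33% without that gap or agreement; tested in A549 cells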;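 further: scaled between vehicle wells and reference inhibitor wells; 23 nL library stock went into each well; one replicate is shown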
Vaccinia stage Venus: second read-out of Vaccinia stage, no call of its own (marks repeat the call); activity change (Venus), %; measured here: Venus reporter, other viral stage;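 negative = less Venus signal; first of two replicates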
Active calls of the source: *.

`CCCN(C)C[C@@H]1Oc2ncc(-c3cc4ccccc4o3)cc2C(=O)N([C@H](C)CO)C[C@@H]1C` gave Vaccinia stage inconclusive.
Screening COc1cccc(-c2cnc3c(c2)C(=O)N([C@@H](C)CO)C[C@H](C)[C@H](CN(C)Cc2ccncc2)O3)c1 returned Vaccinia stage 18 and Vaccinia stage Venus 5.
Screening C[C@@H]1CN([C@H](C)CO)C(=O)c2ccccc2-c2ccccc2CO[C@@H]1CN(C)S(=O)(=O)c1ccc(C(F)(F)F)cc1 returned Vaccinia stage -14 and Vaccinia stage Venus -12.
`C[C@H]1CCCCO[C@@H](CN(C)C(=O)c2ccccc2)[C@@H](C)CN([C@@H](C)CO)C(=O)c2cc(NS(C)(=O)=O)ccc2O1` gave Vaccinia stage -7 and Vaccinia stage Venus 3.
`CCCN1[C@H](C(=O)N2CCN(C)CC2)[C@@H](CO)[C@@H]2Cn3c(ccc(-c4ccccc4F)c3=O)[C@@H]21` gave Vaccinia stage 7 and Vaccinia stage Venus 7.
`O=C(C[C@@H]1C[C@@H]2c3cc(NC(=O)NC4CCCC4)ccc3O[C@@H]2[C@H](CO)O1)NCc1ccccn1` gave Vaccinia stage 16 and Vaccinia stage Venus -1.
Screening COc1ccccc1CNC(=O)C[C@H]1C[C@@H]2c3cc(NS(C)(=O)=O)ccc3O[C@@H]2[C@H](CO)O1 returned Vaccinia stage -4 and Vaccinia stage Venus -2.
`CC(C)NC(=O)N(C)C[C@H]1Oc2cc(C#C[C@@H](C)O)ccc2S(=O)(=O)N([C@@H](C)CO)C[C@@H]1C` gave Vaccinia stage 31 and Vaccinia stage Venus 17.
Screening CCCNC(=O)N1CC2(C1)[C@H](c1ccccc1)[C@@H](CO)N2Cc1cccc(F)c1 returned Vaccinia stage 0 and Vaccinia stage Venus 3.
CN1c2ccc(-c3ccccc3)cc2[C@H]2[C@H](CCN2C(=O)CN2CCOCC2)[C@H]1CO was read as Vaccinia stage 8 and Vaccinia stage Venus -2.
`C[C@H](CO)N1C[C@H](C)[C@H](CN(C)C)Oc2ncc(-c3ccc(F)cc3)cc2C1=O` gave Vaccinia stage -9 and Vaccinia stage Venus 0.
`CCO[C@@H]1OC(C(=O)Nc2ccccc2)=C[C@H](C)[C@H]1CCCO` gave Vaccinia stage 6 and Vaccinia stage Venus 3.
`CC=Cc1ccc2n(c1=O)C[C@@H]1[C@@H](CO)[C@H](C(=O)NCCC)[C@H]2N1C(=O)C1CC1` (mixture of isomers) gave Vaccinia stage 10 and Vaccinia stage Venus -2.
For O=C(Cc1ccccn1)N1CC[C@@H]2[C@H](CO)Nc3ccc(-c4cccc(F)c4)cc3[C@@H]21 the results were Vaccinia stage -11 and Vaccinia stage Venus -4.
`Cc1ccccc1S(=O)(=O)NCC[C@@H]1CC[C@@H](NC(=O)C2CCCC2)[C@H](CO)O1` gave Vaccinia stage -6 and Vaccinia stage Venus 5.
`COc1ccc(S(=O)(=O)N(C)C[C@@H]2OCCCC[C@@H](C)Oc3ccc(NC(=O)CCC(F)(F)F)cc3C(=O)N([C@@H](C)CO)C[C@H]2C)cc1` gave Vaccinia stage 0 and Vaccinia stage Venus -6.
`C[C@@H]1CCCCO[C@@H](CN(C)S(C)(=O)=O)[C@@H](C)CN([C@H](C)CO)C(=O)c2cc(NS(=O)(=O)c3cccs3)ccc2O1` gave Vaccinia stage 29 and Vaccinia stage Venus 7.
`C[C@@H]1CN([C@H](C)CO)C(=O)c2cc(-c3cccc(F)c3)cnc2O[C@@H]1CN(C)C(=O)C1CCC1` gave Vaccinia stage -3 and Vaccinia stage Venus -1.
CCCN(C)C[C@@H]1OCCCC[C@@H](C)Oc2ccc(NS(=O)(=O)c3cn(C)cn3)cc2C(=O)N([C@@H](C)CO)C[C@@H]1C was read as Vaccinia stage 19 and Vaccinia stage Venus 12.
Screening C[C@@H]1CN([C@H](C)CO)S(=O)(=O)c2ccc(C3=CCCC3)cc2O[C@@H]1CN(C)S(=O)(=O)c1ccc(F)cc1 returned Vaccinia stage -24 and Vaccinia stage Venus -10.
`COCC(=O)NC[C@H]1N[C@H](CO)[C@@H]1c1ccc(-c2ccccc2F)cc1` gave Vaccinia stage inconclusive.
For Cc1cccc(-c2ccc([C@@H]3[C@@H](CO)N4CCCCN(S(=O)(=O)c5cccs5)C[C@@H]34)cc2)c1 the results were Vaccinia stage -6 and Vaccinia stage Venus -5.
`O=C(C[C@@H]1C=C[C@@H](NC(=O)CN2CCOCC2)[C@H](CO)O1)NCCc1ccccc1` gave Vaccinia stage 3 and Vaccinia stage Venus -1.
For C[C@H](CO)N1C[C@H](C)[C@H](CN(C)C(=O)Cc2ccccn2)Oc2ncc(-c3ccc(F)cc3)cc2C1=O the results were Vaccinia stage 9 and Vaccinia stage Venus 12.
Screening C[C@H]1CCCCO[C@@H](CN(C)C(=O)Nc2ccc(C(F)(F)F)cc2)[C@@H](C)CN([C@@H](C)CO)C(=O)c2cc(NS(=O)(=O)c3ccc(Cl)cc3)ccc2O1 returned Vaccinia stage -16 and Vaccinia stage Venus -12.
`COc1ccc(NC(=O)N2CCC3(CC2)CN(C(C)=O)[C@@H](CO)c2[nH]c4cc(OC)ccc4c23)cc1` gave Vaccinia stage 9 and Vaccinia stage Venus 3.
CNC[C@H]1Oc2ccc(NC(=O)NC(C)C)cc2C(=O)N([C@H](C)CO)C[C@@H]1C was read as Vaccinia stage 4 and Vaccinia stage Venus 8.
`CC(C)NC(=O)N(C)C[C@@H]1Oc2c(cccc2N(C)C)C(=O)N([C@@H](C)CO)C[C@H]1C` gave Vaccinia stage 1 and Vaccinia stage Venus 3.
C[C@H](CO)N1C[C@H](C)[C@@H](CN(C)C(=O)NC2CCCCC2)Oc2ccc(NS(=O)(=O)c3ccc(F)cc3)cc2C1=O was read as Vaccinia stage inconclusive and Vaccinia stage Venus -11.
Screening C[C@@H]1CN([C@@H](C)CO)C(=O)Cc2cc(NC(=O)C3CCCCC3)ccc2O[C@@H]1CN(C)C(=O)NC1CCCCC1 returned Vaccinia stage 34 and Vaccinia stage Venus 15.
C[C@H](CO)N1C[C@H](C)[C@@H](CN(C)S(=O)(=O)c2cccs2)Oc2ccc(NC(=O)C3CC3)cc2CC1=O was read as Vaccinia stage 6 and Vaccinia stage Venus 8.
`C[C@H]1CN([C@@H](C)CO)C(=O)c2cc(NC(=O)Nc3ccc4c(c3)OCO4)ccc2O[C@@H]1CN(C)C(=O)Nc1ccc2c(c1)OCO2` gave Vaccinia stage 7 and Vaccinia stage Venus -2.
Screening C[C@H](CO)N1C[C@H](C)[C@@H](CN(C)CC2CCCCC2)Oc2ccc(NS(=O)(=O)c3ccc(Cl)cc3)cc2C1=O returned Vaccinia stage -2 and Vaccinia stage Venus -6.
For C[C@@H]1CN([C@@H](C)CO)S(=O)(=O)c2ccc(C#Cc3ccccc3)cc2O[C@@H]1CN(C)C the results were Vaccinia stage inconclusive.
Screening N#C[C@H]1[C@@H](c2ccccc2)[C@H](CO)N1C(=O)C1CCCC1 returned Vaccinia stage 0 and Vaccinia stage Venus -8.
`CCCNC(=O)N1C[C@@H](C)[C@@H](OC)CN(C)C(=O)c2cc(NC(=O)CCC)ccc2OC[C@H]1C` gave Vaccinia stage 9 and Vaccinia stage Venus 3.
`C[C@H]1CN([C@@H](C)CO)C(=O)CCCn2nncc2CO[C@@H]1CN(C)Cc1ccccc1` gave Vaccinia stage 20 and Vaccinia stage Venus 16.
For C[C@H](CO)N1C[C@H](C)[C@@H](CN(C)S(=O)(=O)c2ccccc2)Oc2ccc(NS(=O)(=O)c3cn(C)cn3)cc2CC1=O the results were Vaccinia stage 11 and Vaccinia stage Venus 4.
Screening C[C@@H]1CCCCO[C@H](CN(C)C(=O)Nc2ccc(F)cc2)[C@H](C)CN([C@@H](C)CO)C(=O)c2cc(NC(=O)CCC(F)(F)F)ccc2O1 returned Vaccinia stage 10 and Vaccinia stage Venus -3.
Screening C[C@H]1CCCCO[C@H](CN(C)C(=O)NC2CCCCC2)[C@@H](C)CN([C@@H](C)CO)C(=O)c2cc(NC(=O)Cc3ccccc3)ccc2O1 returned Vaccinia stage inconclusive.
`O=C(C[C@H]1C[C@H]2c3cc(NC(=O)NC4CCCC4)ccc3O[C@H]2[C@@H](CO)O1)NCCc1ccccc1` gave Vaccinia stage 5 and Vaccinia stage Venus 5.
Screening CCC(=O)N1CC(=O)N2[C@H](CO)[C@H](c3ccc(-c4cccnc4)cc3)[C@H]2C1 returned Vaccinia stage 24 and Vaccinia stage Venus 7.
Screening CO[C@@H]1CC[C@@H]2CCN(C)C(=O)CCCN(C)C(=O)c3cccc(C#N)c3OC[C@H]1O2 returned Vaccinia stage 12 and Vaccinia stage Venus 9.
CO[C@H]1CN(C)C(=O)c2ccc(NC(=O)c3ccccc3)cc2OC[C@@H](C)N(C(=O)CN(C)C)C[C@H]1C was read as Vaccinia stage 2 and Vaccinia stage Venus 8.
For Cc1ccc(S(=O)(=O)Nc2ccc3c(c2)C(=O)N([C@@H](C)CO)C[C@H](C)[C@H](CN(C)C(=O)NC(C)C)OCCCC[C@H](C)O3)cc1 the results were Vaccinia stage 7 and Vaccinia stage Venus 4.
Screening O=C(Nc1ccccc1)N[C@@H]1CC[C@@H](CCn2cc(-c3ccccc3F)nn2)O[C@H]1CO returned Vaccinia stage 2 and Vaccinia stage Venus 0.
`C[C@H]1CN([C@@H](C)CO)C(=O)c2cc(NS(C)(=O)=O)ccc2O[C@@H]1CN(C)S(=O)(=O)c1cccs1` gave Vaccinia stage -4 and Vaccinia stage Venus -5.
COc1ccc(CN(C)C[C@H]2OCCCC[C@@H](C)Oc3ccc(NS(=O)(=O)c4ccc(Cl)cc4)cc3C(=O)N([C@H](C)CO)C[C@H]2C)cc1 was read as Vaccinia stage inconclusive.
Screening O=C(Nc1ccc(F)cc1)N1CC(=O)N2[C@H](C1)[C@@H](c1ccc(C#Cc3ccc(F)cc3)cc1)[C@@H]2CO returned Vaccinia stage inconclusive.
`COc1cccc(S(=O)(=O)Nc2ccc3c(c2)[C@H]2C[C@@H](CC(=O)N[C@@H](C)c4ccccc4)O[C@@H](CO)[C@H]2O3)c1` gave Vaccinia stage -22 and Vaccinia stage Venus -18.
Screening C[C@@H](O)C#Cc1ccc2c(c1)O[C@@H](CN(C)C(=O)C1CC1)[C@@H](C)CN([C@@H](C)CO)S2(=O)=O returned Vaccinia stage 13 and Vaccinia stage Venus 8.
`Cc1noc(C)c1NC(=O)N[C@H]1CC[C@H](CCNC(=O)C2CC2)O[C@H]1CO` gave Vaccinia stage 2 and Vaccinia stage Venus 7.
`COC(=O)C[C@H]1CC[C@H]2[C@@H](COc3ccc(NC(=O)Nc4cccc(C)c4)cc3C(=O)N2C)O1` gave Vaccinia stage 0 and Vaccinia stage Venus 1.
Screening COCC#Cc1cnc2c(c1)C(=O)N([C@H](C)CO)C[C@H](C)[C@H](CN(C)C(=O)Nc1ccc(OC)cc1)O2 returned Vaccinia stage 24 and Vaccinia stage Venus 15.
Screening CO[C@H]1CC[C@@H]2CCOc3c(C#N)cccc3C(=O)N(C)CC3(CCCCC3)CC(=O)N(C)C[C@@H]1O2 returned Vaccinia stage 11 and Vaccinia stage Venus 8.
`CCCC(=O)Nc1ccc2c(c1)OC[C@@H](C)N(CC1CCCC1)C[C@@H](C)[C@H](OC)CN(C)C2=O` gave Vaccinia stage 1 and Vaccinia stage Venus 13.
C[C@@H]1CN([C@H](C)CO)S(=O)(=O)c2ccc(C3=CCCC3)cc2O[C@H]1CN(C)C(=O)c1ccccn1 was read as Vaccinia stage 0 and Vaccinia stage Venus -10.
`COc1ccc(S(=O)(=O)N(C)C[C@H]2OCCCC[C@H](C)Oc3ccc(NC(=O)CCCN(C)C)cc3C(=O)N([C@H](C)CO)C[C@H]2C)cc1` gave Vaccinia stage 20 and Vaccinia stage Venus 3.
For CCCN1C[C@@H](C)[C@@H](OC)CN(C)C(=O)c2ccc(NC(=O)CC(F)(F)F)cc2OC[C@H]1C the results were Vaccinia stage -1 and Vaccinia stage Venus -9.
Screening O=C(C[C@@H]1CC[C@@H]2[C@H](COC[C@H](O)CN2C(=O)Nc2ccccc2)O1)NCc1ccccc1F returned Vaccinia stage 6 and Vaccinia stage Venus 1.
Cc1noc(C)c1S(=O)(=O)Nc1ccc2c(c1)C(=O)N([C@@H](C)CO)C[C@@H](C)[C@H](CN(C)Cc1ccc(C(F)(F)F)cc1)OCCCC[C@@H](C)O2 was read as Vaccinia stage inconclusive.

As a working copy, 8 of the compounds above:
Screening COCC#Cc1cnc2c(c1)C(=O)N([C@H](C)CO)C[C@H](C)[C@H](CN(C)C(=O)Nc1ccc(OC)cc1)O2 returned Vaccinia stage 24 and Vaccinia stage Venus 15.
Screening CO[C@H]1CC[C@@H]2CCOc3c(C#N)cccc3C(=O)N(C)CC3(CCCCC3)CC(=O)N(C)C[C@@H]1O2 returned Vaccinia stage 11 and Vaccinia stage Venus 8.
`CCCC(=O)Nc1ccc2c(c1)OC[C@@H](C)N(CC1CCCC1)C[C@@H](C)[C@H](OC)CN(C)C2=O` gave Vaccinia stage 1 and Vaccinia stage Venus 13.
C[C@@H]1CN([C@H](C)CO)S(=O)(=O)c2ccc(C3=CCCC3)cc2O[C@H]1CN(C)C(=O)c1ccccn1 was read as Vaccinia stage 0 and Vaccinia stage Venus -10.
`COc1ccc(S(=O)(=O)N(C)C[C@H]2OCCCC[C@H](C)Oc3ccc(NC(=O)CCCN(C)C)cc3C(=O)N([C@H](C)CO)C[C@H]2C)cc1` gave Vaccinia stage 20 and Vaccinia stage Venus 3.
For CCCN1C[C@@H](C)[C@@H](OC)CN(C)C(=O)c2ccc(NC(=O)CC(F)(F)F)cc2OC[C@H]1C the results were Vaccinia stage -1 and Vaccinia stage Venus -9.
Screening O=C(C[C@@H]1CC[C@@H]2[C@H](COC[C@H](O)CN2C(=O)Nc2ccccc2)O1)NCc1ccccc1F returned Vaccinia stage 6 and Vaccinia stage Venus 1.
Cc1noc(C)c1S(=O)(=O)Nc1ccc2c(c1)C(=O)N([C@@H](C)CO)C[C@@H](C)[C@H](CN(C)Cc1ccc(C(F)(F)F)cc1)OCCCC[C@@H](C)O2 was read as Vaccinia stage inconclusive.

Compound activity from PubChem BioAssay.

This is a subset (hit frequency here may not be typical).
